Bioassay records as filed in PubChem.
VACV Venus inh: inhibitors of vaccinia virus (Venus reporter) | Vaccinia virus Venus reporter expression, fluorescence | Potency, µM (top dose mostly 36.5 µM), for the others: top-dose activity change, negative = inhibition, hits mostly inhibitors | 0.46% of 330,000 active | AID 720580; active means well fitted inhibition curve with a large enough effect; inconclusive means small, poorly fitted or top-dose-only effect; inactive means no such curve, though single readings can be large or run the other way; tested in A549 cells; also: nearly all actives have a fitted effect of over 30% in size; inactives centre near -10
Vaccinia mCherry: inhibitors of vaccinia virus infection (mCherry reporter signal) | Vaccinia virus mCherry reporter infection, fluorescence; about a quarter of the inactives have no number | Potency, µM (doses to about 36.5 µM), for the others: top-dose activity change, negative = inhibition, actives largely listed as inhibitors | 0.63% of 310,000 active; active = well fitted inhibition curve with a large enough effect; inconclusive = small, poorly fitted or top-dose-only effect; inactive = no such curve, though single readings can be large or run the other way; tested in A549 cells; also: nearly all actives have a fitted effect of over 35% in size; inactives centre near -10
* = called active by the depositor; i = inactive; ? = inconclusive; . = no result given. % is scaled to controls: 0 for no effect and ±100 for the full control effect; potency is read from the fitted curve at half-maximal effect.

SMILES	VACV Venus inh	Vaccinia mCherry
CCOC(=O)c1cc(OC(=O)c2ccc(Cl)cc2)n(-c2ccccc2)n1	3%	1%
Cc1ccc(OCC(=O)Nc2ccccc2C(=O)NC2CC2)cc1	-13%	3%
CC(C)NC(=O)c1c2c(nc3ccccc13)CCCC2	1%	.
COc1ccc(C(O)(c2ccccc2)C(C(=O)O)c2ccccc2)cc1 (centres undefined)	-13%	-6%
Cc1ccccc1OCC(=O)NC(=S)Nc1ccc(N2CCCC2)cc1	1%	?
Cn1c(Nc2ccc(F)cc2)nc2ccccc21	-16%	-22%
CC(CN1CCOCC1)OC(=O)c1ccc2c(c1)OCCO2 (centres undefined)	-14%	i
O=C(COC(=O)c1ccccc1C(=O)N1CCN(c2ccccc2)CC1)NCc1ccccc1	-11%	-9%
C[n+]1cc[nH]c1SCC(=O)c1ccccc1	-19%	.
Cc1cc2ncc(S(=O)(=O)C(C)(C)C)c(N)n2n1	-1%	-5%
O=C(CN1CCN(Cc2ccccc2Cl)C1=O)NC1CCCCCC1	?	.
COc1ccc(N(C(=O)Cn2nnc3ccccc32)C2(C(=O)NC3CCCC3)CCCCC2)cc1	-5%	-20%
CC(C)(C)n1nnnc1C(c1cccnc1)N1CCN(c2cccc(C(F)(F)F)c2)CC1 (centres undefined)	-26%	.
Cc1ncn2cc(-c3ccc(Cl)cc3Cl)[nH]c(=O)c12	-15%	-2%
CC(=O)c1ccc(N2CCN(C(=O)c3cc4ccc5cccnc5c4[nH]3)CC2)cc1	-19%	-23%
CCN(CC(=O)Nc1ccc(S(=O)(=O)N2CCCCC2)cc1)Cc1ccccc1	-17%	-19%
CCc1ccc(S(=O)(=O)/N=C2/C=C(Sc3ncn[nH]3)C(=O)c3ccccc32)cc1	10µM*	?
CCc1ccccc1NC(=O)CSc1nnc([C@@H](N)Cc2c[nH]c3ccccc23)o1	-5%	-18%
O=C(O)c1cc(-c2ccccc2Cl)n[nH]1	-7%	0%
Cc1cc(N/C(=N/S(=O)(=O)c2ccc(F)cc2)c2ccccc2)n(-c2ccccc2)n1	-16%	i

Sorted by number of heavy atoms (smallest number first): some entries from above.
SMILES	VACV Venus inh	Vaccinia mCherry
O=C(O)c1cc(-c2ccccc2Cl)n[nH]1	-7%	0%
C[n+]1cc[nH]c1SCC(=O)c1ccccc1	-19%	.
Cn1c(Nc2ccc(F)cc2)nc2ccccc21	-16%	-22%
Cc1ncn2cc(-c3ccc(Cl)cc3Cl)[nH]c(=O)c12	-15%	-2%
CC(C)NC(=O)c1c2c(nc3ccccc13)CCCC2	1%	.
CC(CN1CCOCC1)OC(=O)c1ccc2c(c1)OCCO2 (centres undefined)	-14%	i
O=C(CN1CCN(Cc2ccccc2Cl)C1=O)NC1CCCCCC1	?	.
COc1ccc(C(O)(c2ccccc2)C(C(=O)O)c2ccccc2)cc1 (centres undefined)	-13%	-6%
CCc1ccc(S(=O)(=O)/N=C2/C=C(Sc3ncn[nH]3)C(=O)c3ccccc32)cc1	10µM*	?
CC(=O)c1ccc(N2CCN(C(=O)c3cc4ccc5cccnc5c4[nH]3)CC2)cc1	-19%	-23%
Cc1cc(N/C(=N/S(=O)(=O)c2ccc(F)cc2)c2ccccc2)n(-c2ccccc2)n1	-16%	i
CC(C)(C)n1nnnc1C(c1cccnc1)N1CCN(c2cccc(C(F)(F)F)c2)CC1 (centres undefined)	-26%	.
O=C(COC(=O)c1ccccc1C(=O)N1CCN(c2ccccc2)CC1)NCc1ccccc1	-11%	-9%
COc1ccc(N(C(=O)Cn2nnc3ccccc32)C2(C(=O)NC3CCCC3)CCCCC2)cc1	-5%	-20%

(cont.)
SMILES	VACV Venus inh	Vaccinia mCherry
CNC(=S)NN(C)c1nc(C)cc(C)n1	-10%	i
O=C(O)C1Cc2ccccc2CN1S(=O)(=O)c1ccccc1 (centres undefined)	-5%	14%
Cc1ccc(S(=O)(=O)N2CCN(C(=O)CN3CCCC3)C2)cc1	-14%	.
CCc1ccc([C@H]2[C@@H]3C(=O)C[C@@H]4C(=O)N(Cc5ccccc5)C(=O)[C@@H]4[C@@H]3CN2S(=O)(=O)c2ccc(C)cc2)cc1	-13%	i
COc1ccc(-n2c(NCCN(C)C)nc3sc4c(c3c2=O)CCCCC4)cc1	-23%	i
COC(OC)c1ccnc(-c2ccc(OC(=O)c3ccccc3)cc2)n1	-12%	-2%
OC1(c2ccc3ccccc3c2)CCN(Cc2ccccc2)C1 (centres undefined)	-20%	.
COc1ccccc1CN1[C@@H](CC(=O)O)c2cc(F)ccc2S1(=O)=O	-13%	-14%
Cn1cc(C(=O)N/N=C/c2c(O)ccc3ccccc23)ccc1=O	?	?
Nc1nc(NC(=O)c2ccc(Cl)cc2)nn1-c1ccccc1	-6%	-11%
Nc1cccc2c(=O)c3ccccc3[nH]c12	-4%	?
CCc1ccc(OCC2c3cc(OC)c(OC)cc3CCN2C(=O)Cc2ccc(OC)c(OC)c2)cc1 (centres undefined)	?	35µM*
COc1ccc2nc(NC(=O)C3CCCN(S(=O)(=O)c4cccc5nonc45)C3)sc2c1 (centres undefined)	?	?
Cc1ccc(NC(=O)COC(=O)C2CC(=O)N(Cc3ccccc3)C2)cc1F (centres undefined)	-5%	-5%
O=C(NCCN1CCCC1)c1ccc2c(c1)N(Cc1ccc(F)cc1)C(=O)c1ccccc1S2=O (centres undefined)	-16%	-8%
C=C(C)c1cccc(C(C)(C)NC(=O)N2CCOCC2)c1	-12%	-11%
Cc1ccc(CN2C(=O)C3(c4ccccc42)N(c2cccc(F)c2)C(=O)CS3(=O)=O)cc1 (centres undefined)	-13%	-5%
CCC(C)(C)n1nnnc1C(c1ccc(C)cc1)N(Cc1ccco1)Cc1cccs1 (centres undefined)	-14%	-28%
N#Cc1cccc(NS(=O)(=O)c2ccc(S(=O)(=O)N3CCOCC3)cc2)c1	-7%	i
Cc1ccccc1NS(=O)(=O)c1ccc(C2CNC(=O)C2)cc1 (centres undefined)	-9%	i
COc1ccc(NC(C)=O)cc1C	-2%	i
CCC(CC)N=C1NS(=O)(=O)c2cc([N+](=O)[O-])ccc21	?	13µM*
COc1cccc(/C=N/NC(=O)c2nc(-c3ccccc3)cc(-c3ccccc3)n2)c1	?	.
O=C(N/C(=C/c1ccco1)C(=O)N1CCOCC1)c1ccccc1Br	-11%	-9%
Nc1nc(NCc2ccco2)nc(Nc2ccccc2)c1[N+](=O)[O-]	-7%	i
O=c1cc(N2CCN(c3ccccc3)CC2)[nH]c(=O)n1C1CCCCC1	3%	2%
COc1ccc(C(=O)Nc2nnc(-c3cccs3)s2)cc1	-18%	-29%
Cc1ccc(OC(F)F)c(NC(=O)Nc2ccc3c(c2)OCO3)c1	-10%	-14%
COc1ccc(NC(=O)Cn2cc(S(=O)(=O)Cc3ccc(F)cc3)c3ccccc32)cc1OC	?	-12%
COc1ccc(N(CC(=O)NCc2ccco2)S(=O)(=O)c2ccc(OC)c(OC)c2)cc1	-11%	i
CCOc1ccc(S(=O)(=O)N2CCC(C(=O)Nc3cccc(NC(C)=O)c3)CC2)cc1	-10%	10%
Cc1ccc(NC(=O)C2CCN(S(=O)(=O)c3cccs3)CC2)cc1C	-8%	.
Cc1cccc(NC(=O)CN2C(=O)COc3ccc(Cl)cc32)c1C	8%	2%
Cc1nn(-c2ccccc2)c(C)c1S(=O)(=O)O	-2%	i
CC(C)CC(OC(=O)CC1Sc2ccccc2NC1=O)C(=O)NC1CCCC1 (centres undefined)	-2%	-14%
COc1ccccc1-c1cc(NC(C)=O)c2ncc(-c3cccc(C(C)=O)c3)n2c1	-12%	-21%
O=C(O)c1ccccc1N1C(=O)C2C3c4ccccc4C(Br)(c4ccccc43)C2C1=O (centres undefined)	-14%	i
O=C(c1ccsc1)N1CCCC(N2CCN(c3ccccc3F)CC2)C1 (centres undefined)	-11%	-13%
CCOC(=O)CSc1nc(C2CC2)cc(-c2ccc(Cl)cc2)c1C#N	-13%	i
CCOc1ccc(C(NC(=O)/C=C/c2ccco2)c2ccc(OC)c(OC)c2)cc1 (centres undefined)	15%	-19%
O=C(COC(=O)c1ccccc1C(=O)OCC(=O)NCCc1c[nH]c2ccccc12)NCCc1c[nH]c2ccccc12	?	-18%
C=CCn1c(O)c(N=NC(=S)Nc2ccc(OC)c(Cl)c2)c2ccccc21	-25%	?
Cc1ccc(OCc2ccc(-c3nc(C#N)c(NCc4ccccc4Cl)o3)o2)cc1	-22%	-22%
O=C(Cc1ccccn1)c1ccc(Cl)cc1	-1%	-1%
Cc1cccc(C)c1-n1nnnc1C1(C)CCC(=O)N1Cc1ccco1 (centres undefined)	6%	9%
COc1ccc(NC(=O)Cc2ccc(NC(=O)N3CCCCc4ccccc43)cc2)c(OC)c1	0%	-9%
CC(=O)NCCc1ccc(C(=O)COC(=O)C2CCCCC2)cc1	1%	i
CCCN(C(=O)c1ccco1)c1nnc(-c2ccncc2)s1	-7%	.
CC1=C(c2ccc(C)c(C)c2)S(=O)(=O)N=C1N1CCN(c2cccc(C)c2)C(C)C1 (centres undefined)	-16%	i
CCN1CCN(C(=O)c2sc3nc(C)nc(N4CCC(C)CC4)c3c2C)CC1	-23%	.

Next part.
SMILES	VACV Venus inh	Vaccinia mCherry
O=C(c1ccc(OCC2CCCO2)cc1)N1CCN(S(=O)(=O)c2cccc(F)c2)CC1 (centres undefined)	-6%	-4%
O=S1(=O)N=C(Nc2ccc(S(=O)(=O)N3CCCCC3)cc2)c2ccccc21	-14%	.
Cc1cccc(N2CN=c3s/c(=C\c4ccccn4)c(=O)n3C2)c1	-6%	-21%
COc1cccc(CC2(CO)CCN(C(=O)NC3CCCCC3)CC2)c1	-11%	i
Cc1ccc2nc(-c3ccsc3)c(NC3CCCC3)n2c1	0%	-18%
CCc1ccc2oc(-c3cc(N=Cc4cccc(OC)c4O)ccc3O)nc2c1	-21%	-19%
N#Cc1c(-c2ccco2)nc(NCC2CCCO2)[nH]c1=O (centres undefined)	0%	.
CCN(C(=O)COC(=O)/C=C/c1cccc(Br)c1)C1CCS(=O)(=O)C1 (centres undefined)	?	?
Cc1noc(/C=C/c2ccco2)c1S(=O)(=O)N1CCC(C(=O)N2c3ccccc3CC2C)CC1 (centres undefined)	1%	-4%
Cc1nc2scc(-c3ccco3)c2c(=O)n1/N=C/N(C)C	-5%	-12%
CC1CN(CC(=O)Nc2nc(-c3ccc(Cl)cc3)cs2)CC(C)O1 (centres undefined)	-22%	?
CN(Cc1ccccc1)c1nc(-c2ccc(F)cc2)cc(C(F)(F)F)n1	-1%	-13%
CC(C)(C)OC(=O)N[C@H](C(=O)OC(C)(C)C)c1ccc2ccccc2c1	-10%	i
COc1ccc(-c2cnc3c(NC(C)=O)cc(-c4ccccc4OC)cn23)cc1OC	?	-24%
CCOC(=O)c1c(C)[nH]c2c1cc(O)c1ccccc12	-13%	?
COc1cccc(C(C(=O)NC(C)(C)C)N(C(=O)CCC(=O)Nc2cc(C)on2)C2CC2)c1OC (centres undefined)	3%	16%
COCCn1c(C)cc(C(=O)COC(=O)c2cncc(Br)c2)c1C	-10%	i
CCc1nnc(NC(=O)[C@@H](NC(=O)c2cc(OC)cc(OC)c2)C(C)C)s1	-10%	i
Cc1onc(NC(=O)c2ccc([N+](=O)[O-])o2)c1Br	-25%	?
COCCCN1C(=O)C(=O)/C(=C(/O)c2ccc(OC)cc2)C1c1cccc(OC)c1 (centres undefined)	-6%	.

2 of the compounds above, with bars between the fields.
SMILES | VACV Venus inh | Vaccinia mCherry
CCOC(=O)c1c(C)[nH]c2c1cc(O)c1ccccc12 | -13% | ?
COc1cccc(C(C(=O)NC(C)(C)C)N(C(=O)CCC(=O)Nc2cc(C)on2)C2CC2)c1OC (centres undefined) | 3% | 16%

(cont.)
SMILES	VACV Venus inh	Vaccinia mCherry
COc1ccc(CNC(=O)CC2C[C@H](C(=O)N3CCOCC3)[C@@]3(C)c4[nH]c5ccccc5c4CCN3C2=O)cc1OC (some centres undefined)	-17%	?
O=C(NCc1cccnc1)c1cc(C2CCCCN2S(=O)(=O)c2ccc(F)cc2F)on1 (centres undefined)	-5%	3%
Cc1cccc(C)c1OCc1cc(C(=O)N2CCN(C3CCCC3)CC2)no1	-25%	-13%
CC1(C)Cc2c(sc(NC(=O)c3ccc4c(c3)OCCO4)c2C(N)=O)C(C)(C)N1	-23%	-8%
N#C/C(=C\c1ccc[nH]1)C(=O)c1ccccc1	-7%	-21%
CCOc1cc(/C=N/NC(=O)c2ccc(CN3CCOCC3)cc2)ccc1OCc1ccccc1	-12%	i
CCn1c(CNC(=O)c2ccccc2OC)nnc1SCC(=O)c1ccc(F)cc1	-1%	1%
CC(=O)Nc1ccc(NC(=O)c2ccc(OCc3c(C)noc3C)cc2)cc1	-8%	-8%
CC(C)Cc1ccc(-c2cc3nc(NCCc4ccc(S(N)(=O)=O)cc4)ccn3n2)cc1	-15%	3%
COc1ccc(CNc2ncncc2-c2ccccc2CN(C)C)c(OC)c1	1%	7%
CCC(=O)N1CCN(c2ccc(NC(=O)c3ccc4ccccc4c3)cc2)CC1	-7%	-13%
Cc1cc(C)c(C#N)c(SCC(=O)N2CCCCC2)n1	-8%	-15%
CCOC(=O)c1c(NC(=O)COC(=O)c2ccc(O)cc2)sc(C(=O)NC)c1C	2%	-4%
N#Cc1ccccc1S(=O)(=O)N1CCNS(=O)(=O)c2ccccc21	9%	-7%
COc1ccc(-c2ccc(CCC(=O)O)n2CC2CCCO2)cc1 (centres undefined)	-17%	?
Nc1ccc2nc(-c3ccc(-c4nc5ccc(N)cc5[nH]4)cc3)[nH]c2c1	-11%	i
CCOC(=O)c1c(NC(=O)/C=C/c2ccc(OC)c(OC)c2)sc(C(C)=O)c1C	-10%	-9%
S=c1[nH]nc(-c2ccccc2)n1/N=C/c1cccs1	-5%	i
CN1C(=O)C2(OCC(C)([N+](=O)[O-])CO2)c2ccccc21 (centres undefined)	-17%	-8%

Hits appear at their usual frequency, and some 0.87% of all compounds hit somewhere here.
